# Ecoli rRNA inh – reduced GFP signal of wild-type E. coli, primary screen, bacterial rRNA inhibitor project, GFP/RFP fluorescence, OD600, single point; GFP signal change (wild-type ribosome), % (concentration not given with the values); AID 720706, 2013; 350,000 tested, 1.6% active; E. coli WT GFP vs humanized-ribosome RFP mutants, 24 h; stronger effect = lower value; DMSO median 0, no signal -100;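 active = significant combined selectivity score with lowered wild-type GFP, culture density cut under 30%, mutant RFP and density less affected; inactive = any of these conditions unmet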; note: one replicate is shown; some compounds called inactive have numbers as strong as hits
# Calb FLC – C. albicans growth inhibition with fluconazole, primary screen, CaCi-2 strain, Alamar Blue fluorescence. C. albicans CaCi-2 (fluconazole-resistant clinical isolate) + fluconazole, 48 h. growth inhibition, % (concentration not given with the values). 300,000 tested, 0.57% active. AID 1979, 2009;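 active = most replicates above 75%; inconclusive = exactly half above 75%; inactive = most below 75%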;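 note: all wells also contain fluconazole at 8 µg/ml as a sub-toxic cotreatment; 0% = median of DMSO wells and 100% = median of geldanamycin control wells; wells of about 8 µL received 7.5 nL stock; the first replicate is given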
# ALR inh – inhibitors of human ALR sulfhydryl oxidase, primary screen, biochemical, H2O2 detection, HRP-luminol luminescence, single point | inhibition, % (no concentration beside the values) | 290,000 tested, 3.8% active | FAD-linked sulfhydryl oxidase ALR (Homo sapiens), P55789 | AID 485317, 2010 | purified ALR, DTT oxidation;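 active = mean and each replicate at 75% or more; inconclusive = only one of the two met; inactive = neither met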;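 note: stock transfer was 7.5 nL into about 7.5 µL; 0% = neutral wells and 100% = wells with inactivated enzyme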
# Target sequence (P55789 whole entry, looked up): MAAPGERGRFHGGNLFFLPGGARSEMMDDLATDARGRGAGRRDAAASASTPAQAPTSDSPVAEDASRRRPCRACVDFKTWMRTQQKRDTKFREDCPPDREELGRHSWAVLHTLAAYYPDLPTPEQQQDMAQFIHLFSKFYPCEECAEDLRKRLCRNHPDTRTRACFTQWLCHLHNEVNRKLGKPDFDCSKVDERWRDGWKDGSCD
# T cruzi repl – inhibitors of intracellular T. cruzi growth, primary screen, luminescence, NIH3T3 host cells; T. cruzi beta-gal in NIH3T3, 90 h; inhibition, % (concentration not given with the values); 300,000 tested, 1.4% active; AID 1885, 2009;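 active = mean inhibition across valid replicates above about 55%, limit read from the data; inconclusive = mean below that limit but half or more replicates reach it; inactive = mean below it, under half of replicates reach it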;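 note: signal also drops with host cell toxicity which is not excluded here; 0% = plate median of DMSO wells and 100% = zero luminescence signal; higher percent means less beta-gal luminescence so fewer parasites; stock transfer was 50 nL into about 50 µL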
# Bfl-1 A1 inh – caspase 3/7 activation in MEF A1-2A-BIM cells, primary screen, A1 inhibitor project, cell-based, luminescence, HTS. caspase activation, % (test concentration not listed). 330,000 tested, 0.066% active. Caspase-Glo 3/7 luminescence, 3 h; percent of clofoctol response, vehicle zero. AID 2462, 2010;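 active = over half of replicate activation scores above 10%, or exactly half above 10 with the replicate mean above 10; inconclusive = replicate mean below 10 yet half the replicates above 10; inactive = over half of replicates below 10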;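 note: wells of about 30 µL received 50 nL stock; many hits fall short of the cut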
# B2AR ag – beta2AR agonists driving receptor internalization, primary screen, cell-based, FAP fluorogen, flow cytometry; Am2.2-beta2AR cells; reference of the scale not given here; Beta-2 adrenergic receptor (Homo sapiens), P07550; response, % (test concentration not listed); 340,000 tested, 0.43% active;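 active = response above a set limit, near 3 SD of response in nonfluorescent compounds, cut at about 42% in these data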;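 note: stock transfer was 100 nL into about 11 µL; a reference agonist was the positive control; negative values mostly stem from fluorescent compounds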
# Target sequence (P07550 whole entry, looked up): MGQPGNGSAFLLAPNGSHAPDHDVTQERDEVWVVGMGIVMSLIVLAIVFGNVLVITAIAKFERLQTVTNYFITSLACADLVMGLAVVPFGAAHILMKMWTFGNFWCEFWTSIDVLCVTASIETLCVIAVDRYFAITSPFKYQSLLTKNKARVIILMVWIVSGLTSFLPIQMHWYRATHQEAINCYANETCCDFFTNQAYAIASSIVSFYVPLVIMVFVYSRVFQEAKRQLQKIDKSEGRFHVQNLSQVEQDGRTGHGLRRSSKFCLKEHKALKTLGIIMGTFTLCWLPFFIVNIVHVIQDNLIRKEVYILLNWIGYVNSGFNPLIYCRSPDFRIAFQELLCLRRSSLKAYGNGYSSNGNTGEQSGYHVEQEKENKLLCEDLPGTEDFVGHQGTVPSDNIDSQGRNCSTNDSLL
# LANA-H2B inh – blockers of LANA interaction with H2A/H2B – biochemical, FP readout, HTS, primary screen | AID 2629, 2010 | Protein LANA1 (Human herpesvirus 8 type P (isolate GK18)), Q9QR71 | inhibition, % (no concentration beside the values) | cell-free LANA-H2A/H2B peptide, fluorescence polarization | 320,000 tested, 0.6% active; in the data active = inhibition mostly above about 10%, no sharp cut-off; inactive = mostly below about 6.7%;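 note: stock transfer was 7.5 nL into about 10 µL; 0% = median of vehicle wells and 100% = median of positive control wells; one replicate is shown; the record names a cut of 25% in any replicate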
# Beta apoptosis – inhibitors of cytokine-induced beta cell apoptosis, primary screen, luminescence. INS-1E cytokine-induced death, ATP luminescence, 48 h; percent of positive-control rescue, neutral wells zero. protection from apoptosis, % (test concentration not listed). 300,000 tested, 0.8% active;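 active = all replicates at 75% or more, or half of them and the mean; inconclusive = half reach 75% but not the mean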;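 note: 0% = cytokine-treated negative control wells and 100% = positive control rescue; higher means more ATP so stronger rescue from cytokine killing; wells of about 40 µL received 100 nL stock; the first replicate is given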
# Ecoli rRNA inh OD600 – also measured in Ecoli rRNA inh; calls as there; OD600 change, %; measured here: OD600 growth;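 optical density of the mix in the first replicate; 0 = DMSO median and -100 = no signal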
# Ecoli rRNA inh RFP – also measured in Ecoli rRNA inh; calls as there; RFP signal change, %; measured here: RFP humanized mutant strains;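 first replicate; 0 = DMSO median and -100 = no signal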
# Numbers without * were called inactive; u = inconclusive; x = no result given. Only part of the results is shown; rates above refer to the full screens.
canonical_smiles	Ecoli rRNA inh	Ecoli rRNA inh OD600	Ecoli rRNA inh RFP	Calb FLC	ALR inh	T cruzi repl	Bfl-1 A1 inh	B2AR ag	LANA-H2B inh	Beta apoptosis
Cc1csc(NC(=O)C2CCN(C(=O)CSc3nnc(C)n3Cc3ccccc3)CC2)n1	x	x	x	u	-2.6	6.9	-0.3	-6.1	-2.9	1.8
FC(F)(F)c1ccc(/C=N/n2c(C3CCCCC3)n[nH]c2=S)cc1	-1.2	5.5	-4.7	-1.1	1.5	17.6	-1.7	3.5	-7.3	-1.0
CN(C)c1ccc(CN(CC2CCCO2)C(=O)c2cccs2)cc1 (stereo not drawn)	3.2	6.1	4.9	-1.0	91.6*	34.7	-1.1	x	-3.6	-1.7
CC(=O)N1CCc2c(sc(NC(=O)Cc3ccccc3)c2C#N)C1	7.2	15.2	-1.6	4.2	x	-0.9	1.7	0.8	-3.8	-4.2
COc1ccccc1N=C1SCC(=O)N1c1ccccc1OC	x	x	x	3.7	x	-5.4	0.4	6.8	-1.4	-15.9
O=C(OCC(=O)N1CCc2ccccc21)c1cccnc1	x	x	x	1.6	-3.6	-2.1	-0.4	-5.7	4.1	-3.9
Cc1ccc(S(=O)(=O)NC(Cc2ccc(Cl)cc2)C(=O)O)cc1 (stereo not drawn)	5.6	2.4	0.2	-2.8	0.0	0.0	-0.1	-2.2	-1.2	-7.0
COC(=O)CSC1=C(C#N)C(c2sccc2C)CC(=O)N1 (stereo not drawn)	x	x	x	3.7	-2.7	-11.1	-0.3	-0.6	1.3	-3.2
CCn1c(SCC(=O)Nc2ccc3c(c2)OCCO3)nnc1-c1ccncc1	2.8	2.5	1.7	-15.5	-3.8	7.0	0.2	1.8	-0.6	3.4
O=C1NC2=C(C(=O)CCC2)C(c2cccc([N+](=O)[O-])c2)N1 (stereo not drawn)	7.2	8.2	0.4	-6.5	x	2.6	x	1.2	x	x
CSc1cccc(NC(=O)CN(c2cccc(C)c2)S(C)(=O)=O)c1	x	x	x	-11.2	x	-11.8	0.6	2.1	2.0	-25.6
OC(c1cc(-c2ccc(Cl)cc2)nc2ccccc12)C1CCCCN1 (stereo not drawn)	-58.1	-81.6	-18.8	93.9*	-28.3	50.5	0.9	31.4	-4.8	120.9*
O=C(Nc1cnc2ccccc2c1)C1COc2ccccc2O1 (stereo not drawn)	x	x	x	x	-17.4	-0.3	0.5	2.6	0.2	-5.1
CN(CCOc1ccccc1)C(=O)c1ccc(OC2CCN(C(=O)C3CC3)CC2)cc1	-18.6*	-11.9*	4.7*	0.2	5.6	1.3	-0.1	-1.1	3.7	4.2
Cc1occc(=O)c1OCc1ccc(F)cc1	4.4	6.0	-5.6	3.7	-1.7	-13.7	0.4	-0.9	-0.1	-6.9
COc1ccc(C2CC(=O)c3cnn(-c4nc(C)cc(C)n4)c3C2)cc1OC (stereo not drawn)	-5.7	3.9	1.5	-1.6	-7.9	-8.6	-1.8	-0.2	0.8	-3.9
S=C(NCCCN1CCOCC1)Nc1ccc(Cl)c(Cl)c1	x	x	x	7.3	-0.3	-9.4	1.2	4.0	3.1	-3.6
Nc1cc(Cl)ccc1N1CCCCC1	6.5	1.6	1.7	-12.2	-3.2	-2.0	0.1	0.0	-2.1	-6.6
O=c1oc2ccccc2cc1-c1csc(NN=C2CCCCC2)n1	x	x	x	4.4	86.8*	5.6	-1.6	-13.8	-1.2	-4.1
Cc1cccc(NC(=O)CSc2nc3c(c(=O)[nH]2)CCCC3)c1C	x	x	x	9.8	-5.3	-9.5	-0.3	0.4	-4.3	-1.5
Cc1ccc(C(=O)N(CC(=O)NC2CCCC2)c2ccccc2Cl)s1	-11.7	-12.4	2.4	5.0	8.0	-5.2	0.3	-5.5	2.4	-5.2
COc1cccc(/C=C/c2nc3c(cnn3-c3ccccc3)c(=O)[nH]2)c1	-2.3	-4.7	2.9	-4.3	8.4	10.9	-0.2	10.5	-4.2	2.8
CC1=CC(c2ccc(Cl)cc2)n2nc(NC(=O)CCCC(=O)O)nc2N1 (stereo not drawn)	6.7	8.5	-1.0	-4.0	-3.1	-3.2	1.2	-5.9	-1.7	0.7
O=C(C1=C(O)C(=O)N(CCc2ccccc2)C1c1cccnc1)c1ccco1 (stereo not drawn)	x	x	x	-1.6	10.7	-4.3	-0.4	3.2	2.7	-5.6
CCOC(=O)N1CCN(C2=C(NS(=O)(=O)c3ccccc3)C(=O)c3ccccc3C2=O)CC1	-24.9	-39.0	-6.4	5.5	0.7	4.1	-0.2	-5.4	1.0	-3.6
CCCCN(CC)CCCNC(=O)C1CCN(c2ncnc3c2sc2cccc(F)c23)CC1	-21.0	-20.3	3.4	6.9	-10.3	70.5*	0.3	9.6	1.0	-0.4
CCCN(CCC)S(=O)(=O)c1ccc(NC(=O)c2cc(C(=O)OC)cc([N+](=O)[O-])c2)cc1	x	x	x	34.8	-16.5	74.1*	-1.0	3.6	-2.3	-8.1
O=C1CSC(c2ccccn2)N1c1ccccc1 (stereo not drawn)	18.6	18.5	-9.0	-1.5	99.1*	-10.0	1.3	7.8	-3.4	-7.0
CCCN1C=CC(=C/C=C(\C#N)C(=O)OCC)C=C1	x	x	x	7.9	99.4*	3.8	-2.4	x	-54.6	-3.7
COCCNC(=S)N1CCN(c2nc(-c3ccc(Cl)cc3)cs2)CC1	-21.1	-28.1	0.9	3.8	-3.7	3.2	1.6	3.3	-3.4	-3.2
O=C(CN1CCN(Cc2ccccc2Cl)CC1)N/N=C/c1cccs1	x	x	x	3.2	x	-0.8	-0.1	9.2	0.1	2.8
O=C(NCc1ccc2c(c1)OCO2)c1cc(-c2ccccc2)nn1CC1CC(c2cccnc2)=NO1 (stereo not drawn)	-14.4	-25.7	-16.9	-13.2	-8.2	30.9	-0.7	3.9	1.0	-4.8
Cc1ccc(C(=O)Nc2nc(-c3ccccc3)c(-c3ccccc3)o2)cc1	x	x	x	13.0	1.2	58.6*	-0.9	1.5	0.7	21.1
CCC(=O)c1ccc(OCC(O)CNCc2ccc(F)cc2)cc1 (stereo not drawn)	x	x	x	4.1	x	34.1	0.9	-9.1	-4.8	4.9
S=C(NCC1CCCCC1)Nc1cccnc1	-8.4	-5.3	-2.9	8.4	-1.7	-10.2	2.0	-2.9	-1.9	-1.2
O=C(Nc1cccc(C(=O)NC2CCCCC2)c1)c1ccccc1	2.3	8.7	-1.0	-1.9	x	-8.2	1.3	-26.5	-8.0	1.6
CCOc1ccc(NC(=O)CN(C)C(=O)CN2C(=O)C3CCCCC3C2=O)cc1OCC (stereo not drawn)	2.8	9.9	-2.6	x	0.1	x	-0.2	-3.9	x	-1.4
COc1ccccc1OCCNC(=O)C1CCN(C(C)=O)CC1	8.8	9.2	2.1	0.7	-1.0	-19.7	0.5	0.5	5.4	-0.2
COc1ccc(-c2ccc(-c3noc(C(C)C)n3)c(OC)n2)cc1	x	x	x	2.1	1.8	-1.4	0.0	5.0	-2.1	-3.3
Cc1ccc(S(=O)(=O)/N=C(/Nc2nc(C)cc(C)n2)N2CCOCC2)cc1	x	x	x	0.1	-7.5	-0.9	0.5	0.9	2.0	-0.9
COc1cccc(N(CC(=O)NCC2CCCO2)C(=O)CCC(=O)Nc2nccs2)c1 (stereo not drawn)	10.2	14.3	2.3	u	-0.7	5.9	-0.7	4.9	29.0*	-3.3
COc1ccccc1NS(=O)(=O)c1ccc(C(=O)N2CCN(c3ccccn3)CC2)cc1	-1.3	-21.6	-0.6	x	-12.2	x	1.7	-13.1	-8.5	10.6
O=C(NCCCCNC(=O)c1cccnc1)c1cccnc1	x	x	x	5.7	-12.0	1.9	1.7	-2.2	-2.0	-0.8
O=C(CCCc1nc2ccccc2s1)N1CCN(c2ccccc2F)CC1	-24.2	-24.4	-3.5	23.2	-0.5	-2.5	0.0	-22.7	2.9	-3.2
CCCNS(=O)(=O)c1ccc(OCC(=O)NCc2ccco2)cc1	x	x	x	u	-1.1	-9.6	-0.3	-5.0	6.3	-4.4
COC(=O)c1c(NC(=O)Cc2ccccc2)sc2c1CC(C)(C)NC2(C)C	-1.3	-5.0	16.7	25.4	0.2	10.5	0.7	-7.7	-3.0	-7.1
COc1ccc2c(c1)c(C(C)=O)c(C)n2CCc1ccccc1	-30.4	-50.2	8.8	-3.5	-11.6	7.9	1.1	-5.7	3.7	-7.8
CC(=O)Nc1c2c(nn1-c1ccc(C)cc1)CSC2	16.8	8.4	0.4	-6.0	0.4	-1.1	-0.1	5.5	-1.6	x
Cc1n[nH]c(=O)nc1N/N=C/c1cccs1	12.5	-10.6	3.5	5.0	-3.8	7.6	-12.4	8.9	14.1	19.8
C=CCSc1nc2c(c(=O)[nH]1)C(C(C)C)C(C#N)=C(N)O2 (stereo not drawn)	-3.3	-3.1	0.1	27.4	46.2	-9.0	0.7	2.0	-2.1	-7.2
Cc1cc2c(SCC(=O)NCC3CCCO3)ncnc2s1 (stereo not drawn)	2.9	6.1	-0.6	-5.6	x	-13.2	x	-8.3	x	x
CCCc1nc(NCc2ccco2)c(C#N)c2c1COC(C)(C)C2	x	x	x	15.2	-5.8	22.4	-0.7	7.4	-0.9	3.1
CSc1nnnn1-c1ccc(C)c(Cl)c1	x	x	x	-27.8	-4.0	-14.6	0.3	-2.5	-1.3	2.4

# A draw from above in order of molecular weight, falling:
canonical_smiles	Ecoli rRNA inh	Ecoli rRNA inh OD600	Ecoli rRNA inh RFP	Calb FLC	ALR inh	T cruzi repl	Bfl-1 A1 inh	B2AR ag	LANA-H2B inh	Beta apoptosis
COc1cccc(N(CC(=O)NCC2CCCO2)C(=O)CCC(=O)Nc2nccs2)c1 (stereo not drawn)	10.2	14.3	2.3	u	-0.7	5.9	-0.7	4.9	29.0*	-3.3
CCCNS(=O)(=O)c1ccc(OCC(=O)NCc2ccco2)cc1	x	x	x	u	-1.1	-9.6	-0.3	-5.0	6.3	-4.4
O=C(NCCCCNC(=O)c1cccnc1)c1cccnc1	x	x	x	5.7	-12.0	1.9	1.7	-2.2	-2.0	-0.8
Cc1n[nH]c(=O)nc1N/N=C/c1cccs1	12.5	-10.6	3.5	5.0	-3.8	7.6	-12.4	8.9	14.1	19.8

# High-throughput results (PubChem)
